Assay outcomes (PubChem BioAssay)
Bst PK mod: alters activity of Bacillus stearothermophilus pyruvate kinase; partly purified Bacillus stearothermophilus pyruvate kinase, luminescence ATP production; ribose 5-phosphate activator present at AC10; 1.2% of 51,000 active; Potency, µM; in the data active means potency below about 11 µM; inconclusive means mostly about 12 µM to 25 µM; inactive means weaker than that;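 the screen sought inhibitors and activators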;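 note: potency is the fitted concentration of half-maximal effect; scaled between full activation by ribose 5 phosphate and full inhibition by luteolin; about four in five hits inhibit and the cells do not say which; series up to 57 µM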
TsaE inh: displaces an ADP probe from E. coli YjeE (TsaE); P0AF67; purified YjeE, fluorescence polarisation of a bound ADP probe; Potency, µM; 0.05% of 71,000 active; active = well fitted falling curve; inconclusive = weaker or top-dose-only fall, or a rising curve; inactive = flat or poorly fitted curve;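 note: top concentration of the series not given in the record; excess ADP was the control for the full effect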
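Purified YjeE (10 uM) with BODIPY Texas Red-labeled ADP probe (2 uM); compounds pin-transferred, 15 min at room temperature. Binding inhibition read as decreased fluorescence polarization; ADP titration as control.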
* hit, by the source's call; i = inactive; u = inconclusive; x = not tested or not shown. These rows are one share of the data, so the mix of outcomes need not match the whole.

SMILES | Bst PK mod | TsaE inh
O=C(C1CCN(S(=O)(=O)c2cnc[nH]2)CC1)N1CCc2ccccc2C1 | >57 | i
CC1=C(C(=O)Nc2ccccn2)C(c2ccc(N(C)C)cc2)n2ncnc2N1 (centres undefined) | >57 | i
CC(C)C(=O)Nc1nnc(SCC(=O)NC2CC2)s1 | >57 | i
CC1CCCCC1NC(=O)C1CCN(C(=O)NC2CCCCC2)CC1 (centres undefined) | >57 | i
Cc1onc(C(=O)N2CCC(C(N)=O)CC2)c1-c1ccccc1Cl | x | i
CSc1nc2ccccc2c(=O)n1N | x | i
NCCCNCCCCN(CCCN)/[N+]([O-])=N/O | x | i
CCCCN(C)S(=O)(=O)c1cc(Br)cc2c1N(C(=O)C1CC1)CC2 | >57 | i
COc1ccc2[nH]cc(CCNc3cc(-c4ccoc4)ncn3)c2c1 | x | i
COc1ccc(NC(=O)C2CCN(Cc3cnn(-c4ccccc4)c3-n3cccc3)CC2)cc1OC | >57 | i
O=C(CSc1nn(-c2ccc(F)cc2)c(=S)s1)NC(=O)NCc1ccco1 | >57 | i
O=C(CN1C(=O)COc2ccccc21)N(CCCN1CCOCC1)CC1CC=CCC1 (centres undefined) | >57 | i
c1ccc2[nH]c(N3CCOCC3)nc2c1 | >57 | i
C#CCNc1nc(C(C)C)nc2c1nnn2Cc1ccccc1F | >57 | i
Nc1ccc2nc3n(c(=O)c2c1)CCC3 | x | i
COC(=O)c1ccc2c(=O)n(CC3CCCO3)c(SCC(=O)Nc3ccccc3OC)nc2c1 (centres undefined) | x | i
Cc1cc(C(=O)CSc2nnc(C3COc4ccccc4O3)n2C)c(C)n1-c1ccc(F)cc1 (centres undefined) | >57 | i
COc1nc(N(C)C)nc(-n2nnc(C(C)=O)c2C)n1 | >57 | i
Cc1ccc(S(=O)(=O)Nc2cc(C(=O)N3CCOCC3)ccc2N2CCCCC2)cc1 | >57 | i
COC(=O)c1ccccc1NC(=O)CN(C)S(=O)(=O)c1ccc(OC)c(C)c1 | >57 | i
CCOC(=O)CSc1nc2cc(C)cc(C)c2cc1C#N | >57 | i
CCOC(=O)N1CCN(C(=O)CN(C2CCCCC2)S(=O)(=O)c2ccc(C)cc2)CC1 | x | i
NS(=O)(=O)c1ccc(CCNC(=O)CCC2COc3ccccc3O2)cc1 (centres undefined) | >57 | i
Cc1cc(C)c2[nH]c(=O)c(C(c3nnnn3C3CCCC3)N3CCOCC3)cc2c1 (centres undefined) | >57 | i
COc1ccc(OCCCC(=O)Nc2nncs2)cc1 | >57 | i

(cont.)
SMILES | Bst PK mod | TsaE inh
CS(=O)(=O)N(CC(=O)Nc1ccccc1C(=O)N1CCOCC1)c1ccc2c(c1)OCO2 | >57 | i
O=C(c1ccco1)N1CCN(c2nc3ccccc3n3nnnc23)CC1 | x | i
Nc1nc2n(n1)C(c1cccs1)CC(c1ccc(F)cc1)N2 (centres undefined) | >26 | x
N/C(=N\O)c1ccc(NC(=O)c2cccs2)cc1 | x | i
COc1ccc(Nc2ncnc3c2cnn3Cc2ccccc2)cc1 | >57 | i
COC(=O)COc1ccc(S(=O)(=O)NCc2ccco2)cc1 | >57 | i
C/C(N)=C(\C#N)C(=O)NCc1ccccn1 | >57 | i
COCCSc1nnc(-c2cccc(C#N)c2)n1C | >57 | i
CC(C)C(c1nnnn1Cc1ccc(F)cc1)N1CCN(C(=O)c2ccco2)CC1 (centres undefined) | >57 | i
CCOC(=O)C1CCCCN1Cc1cc(Cl)ccc1O (centres undefined) | x | i
O=C(O)/C(=C1/OC(=O)c2ccccc21)c1ccccc1 | >57 | i
Cc1ccc2[nH]c3c(c2c1)CN(C(=O)CN1CCN(c2ccccc2F)CC1)CC3 | >57 | i
CCOC(=O)c1oc2ccc(S(=O)(=O)n3nc(-c4ccc(OC)cc4)cc3N)cc2c1C | x | i
Cn1c(C(C#N)C(=O)c2ccco2)nc2ccccc21 (centres undefined) | x | i
CCN(CC)C(=O)CP(=O)(c1ccccc1)c1ccccc1 | x | i
O=C(NCc1cccc(F)c1)c1noc2c1CCCC2 | x | i
FC(F)(F)c1cc(-c2ccco2)nc(NCc2cccnc2)n1 | >57 | i
CC(C)n1c(SCC(N)=O)nc2c1c(=O)[nH]c(=O)n2C | >57 | i
CC(=O)NCCNc1nc(-c2ccccc2CN(C)C)nc2ccccc12 | x | i
COCCN1C(=O)C(=O)/C(=C(/O)c2ccc(OCC(C)C)cc2)C1c1cccnc1 (centres undefined) | >57 | i
CN(C(=O)c1cc2sccc2n1C)C1CCCCC1 | >11 | i
Cc1cc(O)ccc1Nc1nc(-c2sc(N)nc2C)cs1 | >57 | i
CN(CC(=O)O)S(=O)(=O)c1cc(Cl)ccc1Cl | x | i
COc1ccc(-c2nnc(SCC(=O)N3CCOCC3)o2)cc1 | >57 | i
Cc1nn(-c2ccccc2)c2sc(C(=O)n3cccn3)cc12 | x | u

Following part.
SMILES | Bst PK mod | TsaE inh
c1ccc(Cc2nn3c(Cn4cnc5ccccc54)nnc3s2)cc1 | >57 | i
CN(C)c1ccc(C(c2nnnn2C(C)(C)C)N2CCc3ccccc3C2)cc1 (centres undefined) | >57 | i
COc1ccc(N(CC(=O)NC2CCCC2)C(=O)Cn2nnc(-c3ccc(C)cc3)n2)cc1OC | >57 | i
O=C1CC(c2ccccc2)C(C(=O)Nc2ccccc2F)N1 (centres undefined) | x | i
O=C(C1CCN(C2CC(=O)N(c3ccc(F)cc3)C2=O)CC1)N1CCOCC1 (centres undefined) | >57 | i
Cc1nc2ccccn2c1C(=O)NCc1ccc2c(c1)OCO2 | >57 | i
COc1ccc(C(=O)Nc2cccc(C(=O)N3CCCC3)c2)cc1 | >57 | i
CCN(c1cccc(C)c1)c1ncnc2nc[nH]c12 | x | i
Cc1nc(NCCc2cnc[nH]2)c2oc3ccccc3c2n1 | >57 | i
CC(C)(/C=N/O)/[N+]([O-])=C/c1ccco1 | >57 | i
CCOC(=O)c1cc2sccc2n1Cc1ccccc1 | >57 | i
O=C(CSc1nnc(CNC(=O)c2ccccc2F)o1)c1ccccc1 | >57 | i
O=C(Nc1ccc2c(c1)OCO2)c1ccc(Br)c(S(=O)(=O)N2CCCC2)c1 | >57 | i
CC(=O)c1ccc(NC(=O)C2CCCN2S(=O)(=O)c2ccc(C)cc2)cc1 (centres undefined) | x | i
COC(=O)c1cc(Br)c(=O)n(Cc2ccc(OC)c(OC)c2)c1 | >57 | i
CCNc1ncc2nc(-c3ccc(F)cc3)c(=O)n(CCC#N)c2n1 | x | i
Cc1c(C(=O)O)oc2ccc(S(=O)(=O)N3CCC(C)CC3)cc12 | i | i
COc1cc(-c2nnn(CC(=O)NC3CCS(=O)(=O)C3)n2)ccc1OCc1ccccc1 (centres undefined) | x | i
O=C(O)c1ccc(-n2cccc2)cc1O | >57 | i
COc1ccc(OC)c(NS(=O)(=O)c2cc(OC)ccc2OC)c1 | >57 | i
CCN(CC)S(=O)(=O)c1ccc2nc(COC(=O)c3n[nH]c4ccccc34)[nH]c2c1 | >57 | i
CN(C)S(=O)(=O)c1cccc(C(=O)N2CCN(Cc3ccccc3)CC2)c1 | >57 | i
O=C1Nc2ccc(S(=O)(=O)N3CCOCC3)c3cccc1c23 | >57 | i
Cc1cccc(OCCCC(=O)Nc2ccc(S(=O)(=O)Nc3onc(C)c3C)cc2)c1C | >57 | i
Cc1ccc(NC(=O)CCCC(=O)O)c(Br)c1 | >57 | i

Structures above containing a cyano group (five):
SMILES | Bst PK mod | TsaE inh
CCOC(=O)CSc1nc2cc(C)cc(C)c2cc1C#N | >57 | i
C/C(N)=C(\C#N)C(=O)NCc1ccccn1 | >57 | i
COCCSc1nnc(-c2cccc(C#N)c2)n1C | >57 | i
Cn1c(C(C#N)C(=O)c2ccco2)nc2ccccc21 (centres undefined) | x | i
CCNc1ncc2nc(-c3ccc(F)cc3)c(=O)n(CCC#N)c2n1 | x | i

Following part:
SMILES | Bst PK mod | TsaE inh
Cc1cc(C)n2nc(CC(=O)NC3CCCCCC3)nc2n1 | >57 | i
COc1cccc(CNC(=O)c2ccccc2N)c1 | >57 | i
O=C(Nc1ccccc1C(F)(F)F)N1CCC(n2c(=O)[nH]c3ccccc32)CC1 | >57 | i
CCN1C2=C(C(=O)CCC2)C(c2ccc(O)c(Br)c2)C2=C1CCCC2=O | x | i
CCOc1ccc(-c2nn[nH]n2)cc1 | >11 | i
COCCn1c(-c2ccccc2F)n[nH]c1=S | >57 | i
COc1cc(Cn2c(-c3nonc3N)nc3ccccc32)ccc1C | >57 | i
Cc1ccc2oc3c(c(=O)c2c1)C(c1cccc(O)c1)N(c1ccccn1)C3=O (centres undefined) | x | i
c1ccc(Nc2nc(-c3cccnc3)cs2)nc1 | u | i
COc1ccc(N=c2scc(-c3ccc(S(=O)(=O)N4CCOCC4)cc3)n2CCCO)cc1 | >57 | i
COc1ccc(NC(=O)c2cnn3c(C(F)(F)F)cc(-c4ccco4)nc23)cc1OC | x | i
CSc1nc(N)nc(SCC(=O)OC(C)C)c1C#N | >11 | x
C[C@@H](C(=O)NCc1ccccc1)[C@H]1C[C@]1(C)[C@H](NC(=O)OCc1ccccc1)c1ccccc1 | x | i
CCOC(=O)c1cn(CC(=O)Nc2ccc3c(c2)OCCO3)nn1 | >57 | i
CCC(=O)N(Cc1cc2cccc(C)c2[nH]c1=O)c1ccccc1OC | >57 | i
COc1ccc(-n2c(SCc3ccc(C#N)cc3)nnc2-c2ccccn2)cc1 | >57 | i
O=C(CSc1nnc(-c2c[nH]c3ccccc23)n1-c1ccc(F)cc1)NCc1ccco1 | >57 | i
COc1ccc(CN2CCOCC2)cc1Br | x | i
CCOC(=O)c1c(NC(=O)c2nn(CC)cc2Br)sc(C)c1C | >57 | i
COCCNC(=O)C(c1cccs1)N(CCc1ccccc1)C(=O)Cn1nnc2ccccc21 (centres undefined) | >57 | i
CCC(CC)C(=O)NCCNC(=O)C(CC)CC | >57 | i
N#Cc1c(N2C(=O)C3C4C=CC(C4)C3C2=O)sc2c1CCC2 (centres undefined) | >57 | i
O=C(C1CCN(S(=O)(=O)c2cnc[nH]2)CC1)N1CCN(Cc2ccc3c(c2)OCO3)CC1 | >57 | i
CC1=Nn2c(nnc2-c2ccc(F)cc2)SC1 | >57 | i
CN(C)CC1(c2ccccc2)CCCC1 | >57 | i

Given with each value named: 2 of the compounds above
> CSc1nc(N)nc(SCC(=O)OC(C)C)c1C#N
  Bst PK mod = >11
  TsaE inh = x
> C[C@@H](C(=O)NCc1ccccc1)[C@H]1C[C@]1(C)[C@H](NC(=O)OCc1ccccc1)c1ccccc1
  Bst PK mod = x
  TsaE inh = i

More records:
SMILES | Bst PK mod | TsaE inh
O=C(NCCCN1CCCC1=O)c1csc2ccccc12 | >57 | i
CC1Cc2ccccc2N1Cc1cc(=O)n2ccsc2n1 (centres undefined) | >57 | i
CCOC(=O)N1CCN(c2nc3ccccc3nc2C(C#N)C(=O)NCCc2ccccc2)CC1 (centres undefined) | >57 | i
CCOC(=O)C1Cc2ccccc2CN1 (centres undefined) | >57 | i
CCCCn1nc(NC(=O)c2cccs2)c2cc3cc(OC)ccc3nc21 | x | i
CC(=O)c1c(C)oc(C)c1CSCc1ccc(C(=O)O)o1 | x | i
O=C(NCc1ccccn1)C1COc2ccccc2O1 (centres undefined) | >57 | i
CCN(CC)CC(=O)c1c[nH]c2ccc(C)cc12 | >57 | i
Cc1ccccc1OCC(O)Cn1c(NCc2ccco2)nc2c1c(=O)[nH]c(=O)n2C (centres undefined) | >57 | i
COc1ccc(-c2nnc(SCC(=O)NC(=O)NCc3ccco3)o2)cc1 | >57 | i
COc1ccc(C2NC3=C(CCC3)C3(C#N)C4(N=C(N)C23C#N)OCCO4)cc1 (centres undefined) | >57 | i
COc1ccc(-c2cnc(SCC(=O)Nc3cc(C)on3)n2Cc2ccco2)cc1 | >57 | i
O=C(O)Cn1c(SC2CCCCC2)nc2ccccc21 | >57 | i
C1CCN(c2nc(N3CCCCC3)nc(N3CCNCC3)n2)CC1 | >57 | i
Cc1ccc(C(=O)O)cc1[N+](=O)[O-] | x | i
CS(=O)(=O)N1CCCC(C(=O)NCCc2ccc(Cl)cc2)C1 (centres undefined) | >57 | i
CC1(C)CC2CC(C)(CN2C(=O)c2cc(-c3ccccc3O)on2)C1 (centres undefined) | x | i
CN(CC(=O)Nc1ccc2c(c1)OCCO2)S(=O)(=O)c1cccc2cccnc12 | x | i
COC(=O)CSc1n[nH]c(-c2ccncc2)n1 | >57 | i
COCCn1c(COc2ccc(OC)cc2)nc2ccccc21 | x | i
O=C(CSc1nnc(-c2c[nH]c3ccccc23)o1)N1CCCCC1 | >57 | i
Fc1ccccc1N1CCN(CCCNc2ccc3nncn3n2)CC1 | x | i
CN1C(=O)NC(NC(=O)C2CCCCC2)(C(F)(F)F)C1=O (centres undefined) | >57 | i
Cc1ccc(C2N(c3ccc(F)cc3)C(=O)C3CCCN32)cc1 (centres undefined) | x | i
CC(=O)CCc1c(C)[nH]c2ccc(NC(C)=O)cc2c1=O | x | i
CC(=O)c1cnc(Nc2nc(C)c3ccc(C)cc3n2)nc1C | >57 | i
CCN(CC)C(=O)Oc1ccccc1NC(C)=O | x | i
CCCn1c(C)nc2c(N3CCC(N(C)C)C3)nc(C)nc21 (centres undefined) | x | i
Nc1cccc(C(=O)Nc2ccc(N)cc2Cl)c1 | x | i

Reprinted at random: three entries already listed.
SMILES | Bst PK mod | TsaE inh
CCC(CC)C(=O)NCCNC(=O)C(CC)CC | >57 | i
COCCNC(=O)C(c1cccs1)N(CCc1ccccc1)C(=O)Cn1nnc2ccccc21 (centres undefined) | >57 | i
Cc1ccc(S(=O)(=O)Nc2cc(C(=O)N3CCOCC3)ccc2N2CCCCC2)cc1 | >57 | i
